Compound activity deposited in PubChem by several laboratories.
PrP UTR inh: inhibition of PrP 5' UTR reporter expression; cell-based PrP 5' UTR mRNA reporter, plate reader; inhibition, % (concentration not given with the values); 340,000 tested, 0.35% active; AID 488862, 2010;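 active means every replicate at 50% or more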;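 further: 0 = median of the neutral control wells; tested in H4 reporter cells; numbers are from one replicate; inactives centre near -14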
Sa RN4220 lethal: growth inhibition of S. aureus RN4220, primary screen, OD600; 330,000 tested, 0.33% active; 16 h; inhibition, % (concentration not given with the values);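 active means z-score of -3 or lower and OD600 up to 0.18 on both plates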;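 further: plate controls were untreated cells for no effect and reference antibiotic for full effect; stock transfer was 100 nL into about 80 µL; one replicate is shown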
Autofluor counter: compound fluorescence in toxin protease inhibitor counterscreen; AID 624483; 360,000 tested, 3.1% active; fluorescence intensity (concentration not given with the values); compound autofluorescence counterscreen, microsphere flow cytometry; hits give high values;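 active means at least 3 SD above the mean of all compounds, about 16000 in these data; inconclusive means too few beads counted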;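 further: 100 nL of 1 mM stock went into each well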
BJeLR lethal: MLPCN primary cell-based screen for lethality selective to Ras in HRASV12 cells; BJeLR (HRASV12) viability, CellTiter-Glo ATP luminescence, 48 h; reference of the scale not given here; inhibition, % (concentration not given with the values); 300,000 tested, 0.17% active; AID 1554, 2009;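 active means replicate mean above 50%; inconclusive means above 50% but judged a plate artefact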;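 further: 50 nL library stock added to about 25 µL; numbers are from one replicate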
ugtP null kill: growth inhibition of ugtP-null S. aureus, primary screen, RN4220 ugtP deletion, OD600; 16 h; some inactives read as strong as hits; growth inhibition, % (test concentration not listed); 330,000 tested, 0.54% active;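 active means z-score under -3 and OD600 up to 0.15 on both plates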;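 further: plate controls were untreated wells for no effect and antibiotic for full effect; wells of about 80 µL received 100 nL stock; the first replicate is given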
Mtb hypoxia rep: PubChem AID 1159583. fluorescence inhibition, % (concentration not given with the values). 300,000 tested, 0.1% active. M. tuberculosis hypoxia-regulated fluorescent reporter, fluorescence;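 active means 35 to 45% if threefold the growth effect, above 45% if 1.5-fold the growth effect; inactive means the rest, general growth blockers included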;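 further: wells of about 50 µL received 100 nL stock; 0% = vehicle wells and 100% = reference inhibitor wells; whole bacteria with a GFP reporter of the hypoxia response; strong numbers were not always called active; many hits fall short of the cut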
Mtb hypoxia rep growth: also measured in Mtb hypoxia rep; calls as there; growth inhibition, %; measured here: M. tuberculosis growth (absorbance);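 0% = vehicle and 100% = reference antibiotic; read after six days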
* hit, by the source's call; ? = inconclusive; · = not tested or not shown; & = joins results of further samples. No enrichment for hits; about 4% have a hit in one of these screens.

SMILES	PrP UTR inh	Sa RN4220 lethal	Autofluor counter	BJeLR lethal	ugtP null kill	Mtb hypoxia rep	Mtb hypoxia rep growth
O=C(CCN1C(=O)C2CC=CCC2C1=O)Nc1cc(C(F)(F)F)ccc1N1CCCC1 (centres undefined)	-14	1.5	5896	-8	4	10	4
Cc1nn(-c2ccc(Cl)cc2)c2sc(C(=O)c3c(N)n(C)c(=O)n(C)c3=O)cc12	-22	6.7	6108	7	-20	17	6
O=C(CN1C(=O)C2CC=CCC2C1=O)NCC(=O)Nc1ccc(F)c(F)c1F (centres undefined)	-57	5.3	4284	3	-67	16	6
C=CCO/N=C(\C)c1c(O)c(C)c(-c2ccccc2)n(-c2ccccc2)c1=O	-28	·	2369	0	·	·	·
COc1ccc(Cl)cc1NC(=S)NNC(=O)C1(C)CC1(Cl)Cl (centres undefined)	-14	-0.7	3426	11	-4	-9	1
CN1C(=O)C2C[C@@]3(Br)c4ccccc4N(OOSc4ccccc4)[C@H]3N2C(=O)[C@@H]1Cc1ccccc1 (some centres undefined)	-15	·	3545	8	·	·	·
CC(=O)Nc1ccc(S(=O)(=O)Nc2cc(C)cn(Cc3ccccc3)c2=O)cc1	3	2.2	5135	-6	-4	-17	0
COc1cccc(/C=N/N2CCOCC2)c1O	-59	·	2652	3	·	·	·
O=C(CN1C2=NCCN2c2ccccc21)c1ccc2c(c1)OCO2	-4	-1.1	12825	2	-1	5	6
CC(=O)c1ccc(C2C[C@]34CN(Cc5cccc(C(F)(F)F)c5)S(=O)(=O)C3CC2O4)cc1 (some centres undefined)	·	3.9	·	·	4	-4	5
Cc1ccc(NC(=O)COC(=O)C(CC(C)C)N2C(=O)C3CC=CCC3C2=O)c(C)c1 (centres undefined)	-12	4.4	2360	10	-4	16	11
Nc1nc(=S)c2ncn(C3OC(CO)C(O)C3O)c2[nH]1 (centres undefined)	-6	5.6&11	3204	-1	-6&-1	-20&12	13&7
O=C(COc1ncnc2sccc12)NC1CCCc2ccccc21 (centres undefined)	-11	1.4	2047	4	-4	-1	0
CS(=O)(=O)Nc1ccccc1C(=O)NCC1(N2CCCCC2)CCCCC1	67*	3.6	3936	-1	17	-5	3
O=C(Nc1ccccc1F)NC1CC1	-27	5.1	2104	-1	6	4	-1
Cc1c(NC(=O)CN2C(=O)NC(C)(c3ccc(OC(F)F)cc3)C2=O)c(=O)n(-c2ccccc2)n1C (centres undefined)	-15	0.5	?	0	-2	1	-12
Cc1ccc2c(c1)NC(=O)[C@@]1(C)C(c3ccccc3)C3COc4ccc(Cl)cc4C3N1C2=O (some centres undefined)	·	-11	·	·	3	11	11
CCOc1ccc(NC2=NCCCS2)cc1	-23	-1.3	3829	2	5	-6	4
O=C(CCCCCCCC(=O)c1ccccc1)c1ccccc1	-15	-1.6	2034	-11	8	5	2
COc1ccc(C)cc1NC(=O)c1ccoc1C	-12	-3.4	2987	-6	0	11	10
O=C(CCNS(=O)(=O)c1ccc(Br)s1)NCc1ccc(F)cc1	-25	2.7	6444	-8	-4	13	10
O=C(N/N=C/c1ccncc1)c1cccs1	-40	·	3837	11	·	·	·
O=C(/C=C/c1c(Cl)cccc1Cl)NCc1ccco1	-24	-0.7	1991	10	1	·	·
O=C(COC(=O)c1ccc[nH]c1=O)NCCc1ccc(F)cc1	-20	8.0	3296	-19	19	2	-2

Rewritten with two lines to a compound: entries from further up
Results follow in this order: PrP UTR inh, Sa RN4220 lethal, Autofluor counter, BJeLR lethal, ugtP null kill, Mtb hypoxia rep, Mtb hypoxia rep growth
- CCOc1ccc(NC2=NCCCS2)cc1
    -23, -1.3, 3829, 2, 5, -6, 4
- O=C(CCCCCCCC(=O)c1ccccc1)c1ccccc1
    -15, -1.6, 2034, -11, 8, 5, 2
- O=C(COC(=O)c1ccc[nH]c1=O)NCCc1ccc(F)cc1
    -20, 8.0, 3296, -19, 19, 2, -2

The results go on:
SMILES	PrP UTR inh	Sa RN4220 lethal	Autofluor counter	BJeLR lethal	ugtP null kill	Mtb hypoxia rep	Mtb hypoxia rep growth
CCCc1[nH]nc2c1C(c1ccc(OCCN3CCOCC3)c(OCC)c1)C(C#N)=C(N)O2 (centres undefined)	-26	7.3	8261	-3	12	10	8
COc1ccc(CCC(C)Nc2ccc(F)cc2)cc1 (centres undefined)	-16	1.0	11128	5	25	3	9
CN(C)c1ccc(C(=O)/C=C/c2ccc(Br)cc2)cc1	-14	4.0	2460	6	3	-13	0
CCOc1cccc(CN2CCC(Oc3ccc(C(=O)N4CCCC4)cc3)CC2)c1	-14	0.4	5794	1	3	3	6
Fc1ccc(-c2nnc(CSc3nnc(-c4ccc5c(c4)OCO5)o3)o2)cc1	-20	8.5	4095	-5	-3	8	11
COc1ccc(NC(=S)NCc2ccccc2)c(OC)c1	-37	1.2	3027	4	1	9	-4
O=[N+]([O-])c1ccccc1C=Nn1c(C(F)(F)F)n[nH]c1=S	·	1.0	·	·	10	-9	4
COc1cccc(C=Nn2c(COc3ccccc3)n[nH]c2=S)c1OC	·	9.5	·	·	5	-11	1
COc1cc(NC(=O)C(=O)NNC(=O)C2CCCCC2)c(OC)cc1Cl	-6	2.3	2648	9	0	1	1
CCn1c(COc2ccccc2)nnc1SCC(=O)C(C)(C)C	-10	5.5	3624	2	2	·	·
COc1ccccc1OCC(=O)NN1Cc2ccccc2C1=N	-2	3.9	4235	1	0	·	·
COC(=O)c1cc(S(=O)(=O)N2CCN(C(=O)c3ccco3)CC2)cn1C	-21	-0.4	4971	6	-1	-3	-2

Quoted at random: 7 records from the list
SMILES	PrP UTR inh	Sa RN4220 lethal	Autofluor counter	BJeLR lethal	ugtP null kill	Mtb hypoxia rep	Mtb hypoxia rep growth
COc1ccccc1OCC(=O)NN1Cc2ccccc2C1=N	-2	3.9	4235	1	0	·	·
CCn1c(COc2ccccc2)nnc1SCC(=O)C(C)(C)C	-10	5.5	3624	2	2	·	·
COc1cc(NC(=O)C(=O)NNC(=O)C2CCCCC2)c(OC)cc1Cl	-6	2.3	2648	9	0	1	1
CCCc1[nH]nc2c1C(c1ccc(OCCN3CCOCC3)c(OCC)c1)C(C#N)=C(N)O2 (centres undefined)	-26	7.3	8261	-3	12	10	8
COc1cccc(C=Nn2c(COc3ccccc3)n[nH]c2=S)c1OC	·	9.5	·	·	5	-11	1
COC(=O)c1cc(S(=O)(=O)N2CCN(C(=O)c3ccco3)CC2)cn1C	-21	-0.4	4971	6	-1	-3	-2
CN(C)c1ccc(C(=O)/C=C/c2ccc(Br)cc2)cc1	-14	4.0	2460	6	3	-13	0

Later entries.
SMILES	PrP UTR inh	Sa RN4220 lethal	Autofluor counter	BJeLR lethal	ugtP null kill	Mtb hypoxia rep	Mtb hypoxia rep growth
C=CC[N+](C)(C)CCCNC(=O)C=NO	·	3.1	·	·	3	6	5
COc1ccc(CNC(=O)c2cc3cccc(O)c3oc2=N)cc1	-9	1.9	5760	2	-3	6	0
COCCNC(=S)N1CCCN(c2nc3cc(C)ccc3cc2C#N)CC1	-11	5.5	3656	0	0	8	8
c1ccc(NC(c2ccccc2)c2ccncc2)cc1 (centres undefined)	4	-6.4	3683	4	-2	-8	7
CCn1ccc(C(=O)Nc2ccccc2Cl)n1	-39	7.2	2085	2	1	11	2
CCCCn1c(CCCNC(=O)c2ccco2)nc2ccccc21	-18	0.1	6151	5	1	8	5
CCN1CCN(CC(=O)Nc2nc3ccccc3s2)CC1	-10	2.2	3929	-11	3	13	3
CCc1cccc(NC(=O)CN2C(=O)NC3(CCCCCCC3)C2=O)c1	2	-0.6	13579	5	-4	2	2
O=C(O)C1CC(=O)N(c2ccc(OCc3ccccc3Cl)cc2)C1 (centres undefined)	-16	1.2	3995	0	1	-2	11
Cc1cc(C)c(CN2CCC(N3CCC(C(=O)NCC4CCCO4)CC3)CC2)cc1C (centres undefined)	-13	3.6	5948	3	13	-6	-5
Cc1cccn2c(=O)c3cc(C(=O)NCc4ccco4)c(=N)n(CCOCCO)c3nc12	-4	·	8999	-1	·	·	·
Cc1nn(-c2ccccc2)c2c1C(=O)N(Cc1ccccc1)C(=O)C(C)(C)C2	-4	-3.4	4294	-2	35	·	·
CCC1=Nc2cc(C(=O)N3CCCCC3)ccc2Sc2ccc(C)cc21	-13	1.5	6385	5	7	7	-6
ON=C(C[n+]1ccccc1)c1ccc(Br)cc1	·	2.4	·	·	3	6	-3
Nc1cc(=O)[nH]n1C1CCCC1	-8	4.2	3103	-5	8	7	-1
O=C(CC(=O)c1ccccc1)Nc1cc(C(F)(F)F)ccc1Cl	-16	2.7	9735	17	6	4	6
Cn1ccsc1=NC(=O)c1ccc(S(=O)(=O)C(F)F)cc1	-45	2.4	5447	-5	-2	-1	0
Cc1cc(C)c(S(=O)(=O)NC2CC(C)(C)NC(C)(C)C2)cc1Br	-10	1.4	3726	0	6	7	13
Cc1n[nH]c(C)c1S(=O)(=O)N1CCCCCC1	3	0.9	2663	0	4	·	·
CC(C)CC(C(=O)OCC(=O)c1c(N)n(C)c(=O)n(C)c1=O)N1C(=O)c2ccccc2C1=O (centres undefined)	-15	-1.8	2423	-20	-4	7	3
O=C(Nc1n[nH]c(C(F)(F)F)n1)C1CC1	4	3.0	4493	-6	-3	-12	-2
CCOC(=O)c1cc(S(=O)(=O)NCCc2ccccc2)cn1C	-13	3.9	4112	2	8	-2	-1
Cc1ccc(S(N)(=O)=O)cc1NC(=O)/C=C/c1cccs1	-16	-0.9	4189	7	-8	·	·
CCCC(C(=O)O)n1c(O)c(C=C2N=c3ccccc3=N2)sc1=S (centres undefined)	-17	5.0	3704	-3	-13	12	4
Cc1ccc2sc(N(CCCN(C)C)C(=O)c3ccc(S(=O)(=O)N4CCc5ccccc5C4)cc3)nc2c1C	-24	2.7	4525	6	-4	10	4
CCCCn1c(N)c(N(CCOC)C(=O)c2ccc3c(c2)OCCO3)c(=O)[nH]c1=O	-12	2.0	·	7	3	7	-3
Cc1ccc(NC(=O)CC2OC(=O)c3ccccc32)cc1S(=O)(=O)N1CCOCC1 (centres undefined)	-22	-0.1	5799	·	6	7	13
CCN(CC)c1nc2c(c(=O)[nH]c(=O)n2C)n1Cc1ccccc1	-11	3.2	4129	-6	2	-5	2
Cn1nccc1C(=O)Nc1ccc2c(c1)OCCO2	-23	2.4	2419	6	6	3	2
O=C(CSCc1ccccc1Cl)NN=Cc1ccco1	·	-3.8	·	·	3	1	-4
COc1ccc(C(=O)NNC2=NC(C)(C)Cc3ccccc32)cc1	-5	3.1	2352	8	5	-1	-2
COC(=O)C1=C(c2ccccc2OCc2ccccc2)CC2CCC1N2C(=O)NCCOc1ccccc1 (centres undefined)	·	-6.6	·	·	6	9	-5
Cc1ccc(-c2nc(CS(=O)CC(=O)NCc3ccc4c(c3)OCO4)c(C)o2)cc1 (centres undefined)	-7	·	6015	1	·	·	·
